H5N1 CPE – MDCK cell protection from H5N1 avian flu; cytopathic effect, luminescence, 72 h; stronger effect = higher value; no value below 0 was filed and about half of the inactive calls have no number; reference of the scale not given here; inhibition, % at 50 µM; actives 0.07% (n = 96,000); in the data active means inhibition above about 25%
* = called active by the depositor; i = inactive.

nr	Structure	H5N1 CPE
1	CCc1ccc(S(=O)(=O)NC(CC(=O)O)c2ccccc2)cc1 (configuration not stated)	0.2
2	COc1ccccc1C(=O)Nc1ccc(NC(=O)c2ccco2)c(C)c1	i
3	COC(=O)c1cc2ccsc2n1Cc1nc(-c2ccc(Cl)cc2)oc1C	i
4	COc1ccc(-c2nnn(CCc3nn[nH]n3)n2)cc1OC	i
5	O=C1CCc2cc(S(=O)(=O)NC(Cc3ccccc3)C(=O)NC3CCCC3)ccc2N1 (configuration not stated)	0.8
6	CC(C)CC(NC(=O)C1CCC(C)CC1)C(=O)Nc1ccccn1 (configuration not stated)	0.6
7	CN(C)c1ccc(CN2CCCCCC2)cc1	1.4
8	COc1cc(S(=O)(=O)NC2CCCC2)ccc1F	0.7
9	Cc1ccc(/C([O-])=C(/C(=S)NCc2ccco2)[n+]2ccccc2)cc1	1.1
10	CC(C)(C)c1ccc(C(=O)NCc2ccc(Cl)cc2)cc1	i
11	Cc1cc2ncn(CCOc3ccccc3C#N)c2cc1C	5.6
12	COc1cccc(C(=O)N(CN2CCCC2=O)c2cccc(Cl)c2)c1	2.5
13	COC(=O)Nc1ccc2ncn(C)c(=O)c2c1	1.6
14	CC1=Nn2c(nnc2-c2ccccc2Cl)SC1	0.6
15	Cc1onc(-c2c(Cl)cccc2Cl)c1C(=O)Nc1c(C)n(C)n(-c2ccccc2)c1=O	i
16	COc1ccc(CCNC(=O)C23CN(Cc4ccccc4)CC2C(c2cccc([N+](=O)[O-])c2)=NO3)cc1 (configuration not stated)	i
17	Cn1c(SCCOc2cccc(Cl)c2)nnc1-c1ccncc1	i
18	COc1cc2c(C#N)c(N3CCc4ccccc4C3)nc(N)c2c(N)n1	i
19	NS(=O)(=O)c1ccc(NC(=O)NC2CCCCC2)cc1	0.1
20	CCCNC(=O)NC(=O)CN1C(=O)NC(C)(c2ccc(C)cc2)C1=O (configuration not stated)	i
21	CN1CCCC(OC(=O)CCCC(=O)OC2CCCN(C)C2)C1 (configuration not stated)	5.1
22	CC(O)c1n(C)c(Cl)c[n+]1C (configuration not stated)	0.3
23	COc1ccccc1S(=O)(=O)Cc1ccc(C(=O)NCc2cccs2)o1	i
24	CC(C)(C)c1nnc(NC(=O)c2cc(-c3ccccc3)nc3ccccc23)s1	i
25	CCCCc1c(O)nc(SCCN(C)C)n(-c2ccccc2)c1=O	0.3
26	CCOC(=O)c1cc(NC(=O)C2CCCO2)cc(C(=O)OCC)c1 (configuration not stated)	0.3
27	Nc1ccc(S(=O)(=O)Nc2ccc(S(N)(=O)=O)cc2)cc1	i
28	Cc1ccc2nc3ccc(N4CCCCCCC4)nn3c(=O)c2c1	i
29	CC(=O)N1CCc2cc(S(=O)(=O)CCC(=O)Nc3c(C)n(C)n(-c4ccccc4)c3=O)ccc21	i
30	O=C(NCc1cccs1)c1cccc(S(=O)(=O)N2CCCCC2)c1	i
31	CCN(CC)C(=O)/C(=C\c1ccc(Br)cc1)NC(=O)c1ccccc1OC	i
32	CC(=NC1CCN(Cc2ccccc2)CC1)c1c(O)[nH]c(=O)[nH]c1=O	i
33	CCC1=NC(c2ccc(OC)cc2OC)N(O)C1(C)C (configuration not stated)	i
34	Cn1c(SCC(=O)c2ccccc2F)nnc1C1CC1	1.2
35	COc1ccc(Nc2nc3c(c(=O)n(C)c(=O)n3C)n2CCO)cc1	1.7
36	CCn1cc(/C=N/NC(=O)c2cc3c(ccc4ccccc43)o2)c2ccccc21	2.1
37	CCc1cc2c(=O)n(N)c(CCC(=O)O)nc2s1	i
38	Cc1ccc(S(=O)(=O)N(C)c2ccc(NS(C)(=O)=O)cc2)cc1	1.0
39	O=C(N/N=C/C=C/c1ccccc1)c1cnccn1	0.1
40	COc1nc2ccc(C)cc2cc1-c1noc(-c2cccnc2)n1	1.8
41	Cc1cc(C)n(-c2nnc(C)c(=O)[nH]2)n1	0.5
42	CCn1c(NCc2ccc3c(c2)OCO3)nc2ccccc21	i
43	O=C(Nc1ccccc1C(=O)NC(Cc1c[nH]c2ccccc12)C(=O)O)c1ccco1 (configuration not stated)	i
44	CCCc1nnc(SCC(=O)N2C(C)CCCC2C)n1CCCOC (configuration not stated)	0.3
45	Cn1c(=O)c2c(SCC(=O)c3ccccc3)nc(C3CC3)nc2n(C)c1=O	i
46	Cc1ccc(CNC(=O)Cc2ccc(-c3ccccc3)cc2)cc1	1.1
47	Cc1c(NC(=O)C2CCCN2S(=O)(=O)c2ccccc2)c(=O)n(-c2ccccc2)n1C (configuration not stated)	0.3
48	COC(=O)c1ccc(C)c(NC(=O)CCSc2ccccc2)c1	0.4

Grouped by structure: the compounds so far with a furan ring, fused or not.
nr	Structure	H5N1 CPE
2	COc1ccccc1C(=O)Nc1ccc(NC(=O)c2ccco2)c(C)c1	i
9	Cc1ccc(/C([O-])=C(/C(=S)NCc2ccco2)[n+]2ccccc2)cc1	1.1
23	COc1ccccc1S(=O)(=O)Cc1ccc(C(=O)NCc2cccs2)o1	i
36	CCn1cc(/C=N/NC(=O)c2cc3c(ccc4ccccc43)o2)c2ccccc21	2.1
43	O=C(Nc1ccccc1C(=O)NC(Cc1c[nH]c2ccccc12)C(=O)O)c1ccco1 (configuration not stated)	i

Next structures:
nr	Structure	H5N1 CPE
49	CC1CCCCN1CC(=O)Nc1sc2c(c1C#N)CCC2 (configuration not stated)	i
50	COc1ccc(Cl)cc1NC(=O)CN1CCC(n2nnc3cc(C)ccc32)CC1	1.3
51	CC(C)C(C(=O)Nc1ccc2c(c1)OCO2)N1C(=O)c2ccccc2C1=O (configuration not stated)	i
52	C=CCn1c(SCC(=O)Nc2nc(C)cs2)nnc1C(CO)NC(=O)c1ccccc1 (configuration not stated)	i
53	Cc1ccc(NC(=O)C2CCN(S(C)(=O)=O)CC2)cc1	0.1
54	O=C(COc1ccc(Cl)cc1)Nc1ccccc1C(=O)NCc1ccco1	0.2
55	CCOC(=O)N1CCN(S(=O)(=O)c2cc(OCC(=O)NC3CCCCC3)c(C)cc2Cl)CC1	0.6
56	COC(=O)C1CCN(C(=O)c2ccc(Cl)c(S(=O)(=O)NCc3cccnc3)c2)CC1	0.7
57	Cc1cc(C)c(NC(=O)CCCC(=O)O)c(Cl)c1	0.3
58	c1ccc(Cn2c(-c3ccco3)nc3nc4ccccc4nc32)cc1	i
59	CCC(C)n1c(S(=O)(=O)O)nc2ccccc21 (configuration not stated)	i
60	Cc1cc(=O)oc2cc(OC(=O)CCN3C(=O)c4ccccc4C3=O)ccc12	1.2
61	CC(=O)Nc1cccc(NS(=O)(=O)c2cccc3nsnc23)c1	0.8
62	N#Cc1nc(N)nc(N(c2ccccc2)c2ccccc2)n1	4.8
63	CC(CN1CCOCC1)OC(=O)c1ccc(Br)cc1 (configuration not stated)	2.0
64	O=C1c2ccccc2-c2c1cccc2C(=O)N(CCO)CCO	i
65	Cc1cccc(NC(=O)C2C(c3ccccc3)C2(Cl)Cl)c1C (configuration not stated)	i
66	Cc1ccc(C(=O)c2ccc(O)cc2)cc1C	0.3
67	Cc1ccc(S(=O)(=O)N2CCN(C(=O)C3CCCCC3)CC2)cc1	i
68	Cc1nnc(C)c2c(C)n(C(C)c3ccccc3)c(C)c12 (configuration not stated)	1.5
69	CS(=O)(=O)N(CC(=O)N1CCCCC1)c1ccc2c(c1)OCO2	i
70	CSCC[C@H](NC(=O)NCc1ccc(F)cc1)C(=O)O	i
71	Cc1ccc(S(=O)(=O)N2CCN(c3nc(C(C)C)c4c(c3C#N)CC(C)(C)OC4)CC2)cc1	3.4
72	CCOC(=O)C1CCN(C(=O)c2ccc(SC)cc2OC)CC1	i
73	Cc1cc(OC(=O)N2CCOCC2)cc(C)c1Cl	1.2
74	Cc1nn(-c2ncc(C(F)(F)F)cc2Cl)c(=O)n1-c1cccc(Cl)c1	i
75	CCC(=O)NCc1cc(-c2nn(C)c(=O)c3ccccc23)ccc1C	i
76	COc1ccc(/C=N/n2c(C)cc(C)c(C(N)=O)c2=O)cc1	i
77	CCCOc1ccc(C2NC(=O)NC(c3ccccc3)=C2C(C)=O)cc1OCC (configuration not stated)	i
78	Cc1nc2ncnn2c(C)c1CCC(=O)NCc1ccccc1	i
79	O=C(NC1CCCCC1)C(c1ccccc1)N(C(=O)c1cccs1)c1ccc2c(c1)OCO2 (configuration not stated)	i
80	Oc1ccc(C2N=C(c3ccccc3)NC(c3ccccc3)=N2)cc1	0.4
81	O=C(O)c1ccc(Cl)c(S(=O)(=O)NCc2ccco2)c1	0.1
82	CC(C)(C)CC(=O)NC(=S)Nc1ccccc1C(F)(F)F	i
83	C=CCN(C(=O)CSc1nc2[nH]ncc2c(=O)n1-c1ccccc1OC)c1ccccc1	2.2
84	CS(=O)(=O)N1CC(C(=O)NC2CCCC2)Oc2ccc(Cl)cc21 (configuration not stated)	1.3
85	CCN(CC)c1ccc(/C=C2/C(=O)NC(=O)N(CC3CCCO3)C2=O)cc1 (configuration not stated)	i
86	Cc1ccc2c(CC(=O)N3CCN(S(=O)(=O)c4cccs4)CC3)coc2c1	1.0
87	CC(C)(C)N(Cc1ccccc1)C(=O)c1ccc2c(c1)OCCO2	3.2
88	COc1ccc(CCNC(=O)Cn2nnc(-c3cccs3)n2)cc1OC	i
89	Cc1ccc(S(=O)(=O)N2CCN(C(=O)N3CCOCC3)C2C)cc1 (configuration not stated)	0.5
90	COn1c(SCc2ccc(Cl)cc2)nc2ccccc2c1=O	1.9
91	CN(C)S(=O)(=O)c1ccc2c(c1)nc1n2CCC1	1.4
92	CN(C)CCNc1ncnc2c1sc1nc(N3CCOCC3)c3c(c12)CC(C)(C)SC3	i
93	Fc1ccc(CSc2nncn2NCc2ccc3c(c2)OCO3)cc1	2.5
94	CCN(CC)CCCN(Cc1cc2cc3c(cc2[nH]c1=O)OCO3)C(=O)Nc1ccccc1OC	1.5
95	CC(C)N(CCc1ccncc1)C(=O)Nc1ccc(F)cc1	2.8
96	CCOC(=O)c1cnc2cc(C)nn2c1-c1ccccc1	i
97	COc1ccccc1C1C2C(=O)N(c3ccccc3)C(=O)C2ON1c1ccccc1 (configuration not stated)	i
98	O=C(Nc1ccnc(-c2cccnc2)n1)c1ccc(Cl)cc1	2.1
99	CCCS(=O)(=O)N1CCCC(C(=O)NCc2ccc(C)cc2)C1 (configuration not stated)	0.0
100	COc1cccc(NC(=O)CSc2nnnn2C(C)C)c1	i
101	COc1ccc(OC)c(NC(=O)Cn2cc(C#N)c3ccccc32)c1	2.2
102	COc1cc(C2C(C(C)=O)=C(O)C(=O)N2CCc2c[nH]c3ccccc23)ccc1O (configuration not stated)	i
103	Cc1cc(C)n(/N=C/c2c[nH]c3ccccc23)c(=O)c1	i
104	COCCn1c(N)c(C#N)c2nc3ccccc3nc21	i
105	Cn1c(O)c(C=NCCCN2CCCC2=O)c(=O)n(C)c1=O	0.7
106	CC(C)(C)NCCCCOc1ccc(F)cc1	0.8
107	COC(=O)CC1C(=O)NCCN1C(=O)CSc1nnc(Nc2ccc(OC)cc2)s1 (configuration not stated)	i
108	N#Cc1c(NC(=O)CCn2cnc3ccccc3c2=O)oc(-c2ccccc2)c1-c1ccccc1	0.4

(further entries)
nr	Structure	H5N1 CPE
109	CCOc1ccc(C(=O)NC2CCN(C(=S)NCc3ccco3)CC2)cc1	0.5
110	CCC1SC2=NC(C)=C(C(=O)OC)C(c3ccc(C)cc3)N2C1=O (configuration not stated)	0.2
111	CC1(C)Cc2c(c(N3CCOCC3)nc3sc4c(NCc5ccco5)nnnc4c23)CS1	11.6
112	CC1(C)CC2(CC(C)(C)NC(=O)N2)NC(=O)N1	i
113	Cn1c(SCc2cc(=O)[nH]c3ccccc23)nnc1-c1ccco1	2.5
114	COc1ccc(/C=N/n2cc(-c3ccc(OC)cc3)nc2N)cc1	i
115	COc1cccc(-c2nnc(SCc3ccc(C#N)cc3)n2Cc2ccco2)c1	i
116	O=c1[nH]c2cc3c(cc2cc1CN(Cc1nnnn1CC1CCCO1)C1CCCCC1)OCO3 (configuration not stated)	i
117	COC(=O)C1=C(N)c2c(F)cccc2C1(C#N)c1ccccc1 (configuration not stated)	0.4
118	CC(=O)Nc1cc(C(C)(C)C)c(O)c(C(C)(C)C)c1	0.6
119	Cc1nn(C)c(=O)n1-c1ccc(Oc2ccccc2)cc1	i
120	CCOC(=O)c1cc(-c2ccccc2)sc1NC(=O)C(C)N1C(=O)NC(C)(c2ccc(Cl)cc2)C1=O (configuration not stated)	i

Part of the list above, set out differently:
(6) CC(C)CC(NC(=O)C1CCC(C)CC1)C(=O)Nc1ccccn1 (configuration not stated)
  H5N1 CPE = 0.6

(7) CN(C)c1ccc(CN2CCCCCC2)cc1
  H5N1 CPE = 1.4

(8) COc1cc(S(=O)(=O)NC2CCCC2)ccc1F
  H5N1 CPE = 0.7

(9) Cc1ccc(/C([O-])=C(/C(=S)NCc2ccco2)[n+]2ccccc2)cc1
  H5N1 CPE = 1.1

New compounds follow.
nr	Structure	H5N1 CPE
121	O=C(CSc1ncccn1)NC(=O)NCc1ccccc1	0.4
122	CC(C)OC(=O)CSc1nnc(-c2cnccn2)n1C	i
123	CN1CCN(C(=S)c2ccc(N(C)C)cc2)CC1	0.6
124	COc1ccc(S(=O)(=O)NCCc2ccccc2)cc1	i
125	Cc1ccc(C=C2C(=O)c3ccccc3C2=O)s1	i
126	COc1ccccc1N1CCN(C(=O)c2c(-c3ccccc3)noc2C)CC1	1.5
127	Oc1ccc(-c2cn3c(n2)SCC3)cc1	i
128	OCCCN=c1cc(-c2ccccc2)oc2ccc(Cl)cc12	i
129	CC(C)(C)c1cc(=O)n2c(C#N)c(C#N)nc2[nH]1	i
130	CC(C)c1ccc(NC(=O)COc2ccc(S(=O)(=O)N3CCOCC3)cc2)cc1	0.3
131	CCOC(=O)C(NC(C)=O)C(OC(C)=O)c1cccc(N(CCO)CCO)c1 (configuration not stated)	i
132	O=C1CC(Nc2ccc3ccccc3c2)C(=O)N1Cc1ccccc1 (configuration not stated)	1.0
133	CCC(Oc1ccccc1)C(=O)Nc1nnc(C)s1 (configuration not stated)	i
134	Oc1c(C(c2ccco2)N2CCOCC2)sc2ncnn12 (configuration not stated)	i

Not all compounds are listed. The share of hits here may be higher or lower than overall.
